CtBP-E1A inh = blocks the CtBP interaction with E1A; AlphaScreen GST-E1A/His-CtBP binding, 1536-well; stronger effect = lower value; control for the full effect not named in the record; 0.49% of 340,000 active; activity change, % (no concentration beside the values); in the data active means activity change below about -65%; inconclusive means about -30% to -65%; inactive means above about -30%; note: % is set by controls: 0 for no effect and ±100 for the full control effect; compound concentration not given in the record
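Homogeneous bead-based format: GST-tagged E1A captured on glutathione donor beads, His-tagged CtBP on nickel acceptor beads; compounds precede bead addition by 2 h at 37 °C.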
Sfp inh = inhibitors of Bacillus subtilis Sfp phosphopantetheinyl transferase | Biochemical Sfp PPTase activity, qHTS | 3.5% of 310,000 active | Q9F4F7 | AID 1490 | Potency, µM, for inactives: max response, negative = inhibition, hits mostly inhibitors; active = well fitted inhibition curve with a large enough effect; inconclusive = small, poorly fitted or top-dose-only effect, or another doubt; inactive = no such curve, though single readings can be large or run the other way;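 note: the enzyme is Sfp with the accession as filed and its product quenches rhodamine fluorescence; potency is the fitted concentration of half-maximal effect; 0% = enzyme reaction without inhibitor and -100% = no enzyme wells; top concentration of the series not given in the record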
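Fluorescence-quenching assay: 15 nM Sfp-PPTase preincubated 15 min at room temperature with compound, then 5 uM rhodamine-CoA and 12.5 uM BHQ-2-labelled YbbR peptide added. Fluorescence (ex 525/em 598 nm) read at start and after 30 min; difference gives rate.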
TRPV1 PAM = potentiators of human vanilloid receptor 1 (TRPV1); 0.02% of 320,000 active; AID 540277; TRPV1-expressing cells, Fluo-8 calcium influx, capsaicin EC20 potentiation; host cell line not named in the record; control for the full effect not named in the record; Q8NER1; potentiation, % at 8.33 µM; active means potentiation above 80%; inconclusive means 30% to 80%; inactive means below 30%; note: 0% is about no effect
Target sequence (Q8NER1 whole entry, looked up): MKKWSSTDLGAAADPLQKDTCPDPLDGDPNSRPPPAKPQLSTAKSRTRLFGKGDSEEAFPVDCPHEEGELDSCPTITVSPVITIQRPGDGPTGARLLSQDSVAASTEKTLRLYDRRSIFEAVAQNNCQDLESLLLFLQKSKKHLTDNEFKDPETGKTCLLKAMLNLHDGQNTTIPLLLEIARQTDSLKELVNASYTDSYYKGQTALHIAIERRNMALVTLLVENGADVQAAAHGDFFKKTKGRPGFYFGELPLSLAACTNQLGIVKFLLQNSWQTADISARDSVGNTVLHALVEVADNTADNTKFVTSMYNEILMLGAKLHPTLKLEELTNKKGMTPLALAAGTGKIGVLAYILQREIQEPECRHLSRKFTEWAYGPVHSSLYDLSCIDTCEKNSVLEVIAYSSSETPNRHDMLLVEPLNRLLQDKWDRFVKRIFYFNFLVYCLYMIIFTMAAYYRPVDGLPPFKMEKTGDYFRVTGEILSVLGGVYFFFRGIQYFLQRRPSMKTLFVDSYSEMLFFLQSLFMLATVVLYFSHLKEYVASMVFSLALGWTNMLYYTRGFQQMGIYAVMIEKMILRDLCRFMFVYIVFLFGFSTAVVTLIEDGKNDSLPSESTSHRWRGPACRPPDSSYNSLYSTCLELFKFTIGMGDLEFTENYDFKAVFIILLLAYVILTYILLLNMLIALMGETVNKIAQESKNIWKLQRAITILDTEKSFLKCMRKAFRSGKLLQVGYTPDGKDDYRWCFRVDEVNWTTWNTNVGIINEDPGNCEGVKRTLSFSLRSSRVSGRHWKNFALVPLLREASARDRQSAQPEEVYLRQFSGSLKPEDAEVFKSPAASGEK
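TRPV1-expressing cells were cultured overnight at 35.5C and loaded with Fluo-8 calcium dye for 40 to 90 min at room temperature. After a 10 s baseline, compound was added and calcium influx was read kinetically for 3 min (ex 480/em 520 nm).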
Menin MLL FP FL = inhibitors of human menin-MLL interaction, wild-type MLL peptide | FP activity change, % at 61.4 µM | Fluorescence polarization, fluorescein-MLL peptide displacement from menin | 290,000 tested, under 10 active; inconclusive = falling polarisation curve, or a change in total fluorescence; inactive = total fluorescence flat and polarisation flat or rising; no compound was filed as active; the % refers to the polarisation; negative = inhibition;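 note: % of control where 0% means no effect; inhibitors lower the polarisation; unlabelled MLL peptide was the positive control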
ClpP mod = qHTS Assay for Activators of ClpP; ATP-dependent Clp protease proteolytic subunit (Bacillus subtilis (strain 168)), P80244; purified B. subtilis ClpP, FRET peptide cleavage, 20 min; Potency, µM (doses to about 57.5 µM), for the others: at the highest dose activity change, negative = active; 1.9% of 340,000 active; AID 651965, 2013; active = well fitted falling curve with a large enough effect; inconclusive = small, poorly fitted or top-dose-only effect; inactive = no such curve, though single readings can be large or run the other way; note: potency is the fitted concentration of half-maximal effect; the source files actives as falling curves though it sought activators and does not explain the sign; nearly all actives have a fitted effect of over 65% in size; many hits overshoot -100%
Target sequence (P80244 whole entry, looked up): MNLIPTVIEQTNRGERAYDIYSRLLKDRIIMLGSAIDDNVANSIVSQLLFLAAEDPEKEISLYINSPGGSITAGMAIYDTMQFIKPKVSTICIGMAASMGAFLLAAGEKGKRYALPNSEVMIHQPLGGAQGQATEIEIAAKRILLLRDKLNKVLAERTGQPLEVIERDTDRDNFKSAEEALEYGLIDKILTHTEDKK
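ClpP 10 microg/mL final, pH 8 Tris/KCl buffer with BSA, glycerol, Tween-20; compound pinned in; FRET-FV substrate; RT 20 min; Ex320/Em430; ΔFRET vs ADEP 5.8 microM, DMSO, no enzyme.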
gsp agonist = gsp mutant agonism; 0.13% of 340,000 active; gsp mutant cells, cAMP HTRF, 30 min; control for the full effect not named in the record; Potency, µM (series often up to 76.9 µM), without a hit: at the highest dose activation (cAMP increase), usual class: activators; AID 624287; active = well fitted activation curve with a large enough effect; inconclusive = small, poorly fitted or top-dose-only effect, or another doubt; inactive = no such curve, though single readings can be large or run the other way; cell line not stated here;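 note: phosphodiesterase inhibitor Ro 20-1724 added with compounds to block cAMP breakdown; potency is the fitted concentration of half-maximal effect; nearly all actives have a fitted effect of over 60% in size; about a fifth of the inactives were tested at one dose only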
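Cells in DMEM/10% FBS with G418 were pretreated with compounds in DMSO plus […] (300 uM stock) for 30 min at 37C. cAMP was measured by HTRF (cAMP-d2 plus anti-cAMP antibody-K) after 30 min at room temperature.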
gsp antagonist = antagonists of gsp mutant (McCune-Albright syndrome). gsp-mutant cells, cAMP HTRF, 30 min; control for the full effect not named in the record. Potency, µM (top dose mostly 76.9 µM), without a hit: top-dose activity change, negative = inhibition, hits mostly inhibitors. 0.4% of 340,000 active; active = falling curve of any shape with a large fitted effect; inconclusive = falling curve, mostly with a smaller effect; inactive = flat or rising curve; cell line not stated here;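 note: intracellular cAMP measured with PDE inhibitor Ro 20-1724 present during compound exposure; potency is the fitted concentration of half-maximal effect; % is set by controls: 0 for no effect and ±100 for the full control effect; nearly all actives have a fitted effect of over 65% in size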
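Cells, 2000/well, grown 16–24 h in DMEM 10% FBS with 0.5 mg/ml G418, then compounds plus […] (300 uM addition stock), 30 min at 37C. cAMP read by HTRF (cAMP-d2 and anti-cAMP antibody-K in lysis buffer) after 30 min RT.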
The depositor's hits bear a star; ? = inconclusive; / = no result given; [ ] = remark or other dose.

(1) Cc1cccc(C)c1NC(=O)Cn1c(=O)n(CCC(=O)NCc2ccco2)c(=O)c2sccc21
(2) CCOc1cccc(C(=O)Nc2ccc(NC(=O)c3ccccc3)c(C)c2)c1
(3) Cc1cc(NC(=O)C2C3C(=O)N(CC4CCCO4)C(C(=O)NCc4ccccc4)C34C=CC2(C)O4)no1 (stereo not drawn)
(4) Cc1cc(N2CCCC2)n2nc(C)nc2n1
(5) Cc1cc(C)n2c(Br)c(CN3CCCC(C)C3)nc2n1 (stereo not drawn)
(6) Cc1noc(C)c1CSc1ncnc2ccccc12
(7) Oc1ccc(Cl)cc1C=Nc1ccccc1Br
(8) COc1ccc2c(c1)OC13CCN(C)CC1C2C(C(=O)c1ccc(F)cc1)C(=O)N3 (stereo not drawn)
assay / entry	1	2	3	4	5	6	7	8
CtBP-E1A inh	0	2	0	2	10	-2	1	3
Sfp inh	-8%	15%	-19%	9%	9%	18%	2%	-11%
TRPV1 PAM	7	-1	4	5	-5	/	4	-15
Menin MLL FP FL	0.1	2.4	-0.8	-0.4	1.7	4.3	2.8	2.0
ClpP mod	-0.2%	/	-2.0%	-3.2%	/	-3.5%	?	0.4%
gsp agonist	2%	-26%	-1%	23%	18%	?	3%	-5%
gsp antagonist	-7%	-15%	-5%	3%	6%	12%	-11%	13%

Some entries already given, showing only TRPV1 PAM and Menin MLL FP FL:
#	smiles	TRPV1 PAM	Menin MLL FP FL
3	Cc1cc(NC(=O)C2C3C(=O)N(CC4CCCO4)C(C(=O)NCc4ccccc4)C34C=CC2(C)O4)no1 (stereo not drawn)	4	-0.8
4	Cc1cc(N2CCCC2)n2nc(C)nc2n1	5	-0.4

Remaining list, next part.
(9) CN(C)C(=O)[C@H]1C[C@H]1[C@@H](O)[C@H](CO)NC(=O)[C@H](Cc1ccccc1)NC(=O)OC(C)(C)C
(10) COCCNC(=O)CN(C(=O)Cn1nnc2ccccc21)c1ccccc1C
(11) CC(C)Oc1ccc(S(=O)(=O)N2CCCCC2)cc1NC(=O)CN1C(=O)NC(C)(c2ccccc2)C1=O (stereo not drawn)
(12) O=C(COC(=O)Cc1c(F)cccc1Cl)NNC(=O)c1ccccc1
(13) O=C(NCCc1cccnc1)C1CCC(=O)N(Cc2ccc(Cl)cc2)C1 (stereo not drawn)
(14) CCCCNC(=O)CCn1c(=O)c2ccccc2n(Cc2ccccc2C)c1=O
(15) COc1ccc(/C=C(\CC(=O)O)c2nc3ccccc3o2)cc1
(16) COCCCNC(=O)C(C)N1c2cccc3cccc(c23)S1(=O)=O (stereo not drawn)
assay / entry	9	10	11	12	13	14	15	16
CtBP-E1A inh	7	9	0	/	-8	3	0	5
Sfp inh	12%	8%	7%	/	19%	-3%	-12%	9%
TRPV1 PAM	2	-6	9	/	18	1	4	5
Menin MLL FP FL	1.3	1.6	2.9	/	-6.1	5.4	-2.9	-2.8
ClpP mod	0.5%	0.0%	-1.0%	0.6%	0.8%	-16%	/	0.2%
gsp agonist	?	-12%	?	17%	12%	10%[15.4 µM]	8%	0%[15.4 µM]
gsp antagonist	4%	2%	-21%	1%	-9%	14%	-4%	5%

(17) Cc1ccc(NC(=O)c2cc(CC(C)C)nc3ccccc23)cc1
(18) COC(=O)CNC(=O)COC(=O)/C=C/c1ccc(F)cc1
(19) CC1(C)Cc2cccc(OCC(=O)N3CCN(c4ccc([N+](=O)[O-])cc4)CC3)c2O1
(20) Cc1ccc(-n2ncc3c2CCCC3NC(=O)CCn2ccnc2C)cc1C (stereo not drawn)
(21) CCn1cc(C(=O)NCCCO)c(=O)c2cc(F)c(N3CCN(C)CC3)cc21
(22) CC1CCN(C(=O)c2ncn(C)c2C(=O)N2CCC(C)CC2)CC1
(23) Cc1cc(NC(=O)CSc2nc3cc(C)c(C)cc3cc2C)no1
(24) CC(C)Cc1ccc(C(C)C(=O)OCC(=O)c2c[nH]c3ccccc23)cc1 (stereo not drawn)
assay / entry	17	18	19	20	21	22	23	24
CtBP-E1A inh	8	-6	-11	0	/	2	-3	9
Sfp inh	4%	21%	3%	/	11%	/	1%	41%[activator]
TRPV1 PAM	-8	6	-11	/	3	/	7	-10
Menin MLL FP FL	2.2	1.9	5.8	/	12	/	4.4	3.4
ClpP mod	/	/	-1.1%	-0.6%	3.7%	0.0%	/	-0.4%
gsp agonist	-44%[inhibitor]	-3%[15.4 µM]	-7%	-17%	1%	40%	-49%[inhibitor]	-36%[inhibitor]
gsp antagonist	-2%	-10%	?	6%	-2%	10%	11%	-14%

Whole records, quoted from the list.
O=C(NCCc1cccnc1)C1CCC(=O)N(Cc2ccc(Cl)cc2)C1 (stereo not drawn) reads CtBP-E1A inh: -8; Sfp inh: 19%; TRPV1 PAM: 18; Menin MLL FP FL: -6.1; ClpP mod: 0.8%; gsp agonist: 12%; gsp antagonist: -9%
Cc1cccc(C)c1NC(=O)Cn1c(=O)n(CCC(=O)NCc2ccco2)c(=O)c2sccc21 reads CtBP-E1A inh: 0; Sfp inh: -8%; TRPV1 PAM: 7; Menin MLL FP FL: 0.1; ClpP mod: -0.2%; gsp agonist: 2%; gsp antagonist: -7%

New compounds follow
(25) Cn1c(=O)c2c([nH]c(=O)n2C)n(C)c1=O
(26) CCOC(=O)c1sc(-c2ccccc2)cc1NC(=O)Nc1ccc([N+](=O)[O-])cc1
(27) Cc1cc(S(=O)(=O)N2CCN(c3c(C)cccc3C)CC2)ccc1F
(28) NC(=O)c1nsc(C(=O)N(c2ccccc2F)C(C(=O)NCc2ccccc2)c2ccc(O)cc2)c1N (stereo not drawn)
(29) Cc1ccc(NC(=O)c2ccccc2-c2ccccc2C(=O)O)cc1C
(30) O=C(Nc1cc(Sc2ccccn2)cc([N+](=O)[O-])c1)c1ccc(Cl)cc1
(31) COc1cc(C(=O)Nc2sc3c(c2C(=O)O)CCC3)cc(OC)c1OC
(32) CC1Nc2ncnc(N3CCN(c4ccccc4)CC3)c2N(Cc2ccccc2)C1=O (stereo not drawn)
assay / entry	25	26	27	28	29	30	31	32
CtBP-E1A inh	-1	7	12	4	5	-22	1	3
Sfp inh	-6%	24%	?	24%	23%	4%	-21%	/
TRPV1 PAM	?	-13	9	5	-7	-11	6	24
Menin MLL FP FL	7.0	0.0	?	0.8	0.1	6.7	-1.0	/
ClpP mod	-5.2%	-0.9%	1.4%	/	/	-2.3%	/	0.9%
gsp agonist	?	-17%	20%	11%[15.4 µM]	-21%	11%	1%[15.4 µM]	-47%[inhibitor]
gsp antagonist	2%	9%	-10%	?	-10%	-11%	-9%	-1%

(33) CC1(N2CCOCC2)CC2(O)C(=[N+]1[O-])CCc1nonc12 (stereo not drawn)
(34) COc1ccc(-n2nc3c(c2NC(=O)COc2cccc(OC)c2)CS(=O)(=O)C3)cc1
(35) CCOC(=O)N1CCN(CC(=O)N2CCC(C(N)=O)CC2)CC1
(36) Cc1ccc(-n2nnnc2SCC(=O)NNC(=O)c2ccco2)c(C)c1
(37) Fc1ccc(C2N(c3ccccc3)C(=S)N3CCCN23)cc1 (stereo not drawn)
(38) CCOc1cc(NC(=O)C2CCCCC2)c(OCC)cc1NC(=O)c1ccccn1
(39) Cc1ccc(C)c(-n2nnnc2Sc2nnnn2-c2ccccc2)c1
(40) COC(=O)CSc1nnc(-c2ccccc2OC)o1
assay / entry	33	34	35	36	37	38	39	40
CtBP-E1A inh	/	3	5	10	-10	1	4	2
Sfp inh	1%	50µM*	24%	21%	2%	3%	4%	11%
TRPV1 PAM	-2	-6	5	10	3	0	-7	1
Menin MLL FP FL	1.2	/	-1.1	1.5	6.9	-2.4	-0.6	1.5
ClpP mod	/	-0.8%	/	0.2%	-2.3%	/	-0.4%	-2.1%
gsp agonist	/	-8%	4%[15.4 µM]	-35%[inhibitor]	0%	4%	-30%	?
gsp antagonist	/	-5%	5%	-1%	-5%	0%	?	0%

(41) Cc1ccc(NC(=O)CSc2n[nH]c(C)c2[N+](=O)[O-])cc1
(42) O=C(CSc1ncn(-c2ccccc2)n1)Nc1nc(-c2ccccc2)cs1
(43) O=C(NCCN1CCOCC1)c1ccc(=O)n(Cc2ccc(Cl)cc2)c1
(44) COc1cc(C(=O)NCC2CCCO2)ccc1OCc1c(C)noc1C (stereo not drawn)
(45) NC(=O)c1ccc(Cn2c(C(=O)c3ccc(Cl)cc3)c3ccccc3[n+]2[O-])cc1
(46) CCOC(=O)N1CCN(C(=O)CSCc2ccccc2)CC1
(47) CCOc1ccccc1CN1CCN(Cc2ccc3cc(F)ccc3n2)CC1CCO (stereo not drawn)
(48) O=C(CSCCOc1ccccc1)NCc1ccncc1
assay / entry	41	42	43	44	45	46	47	48
CtBP-E1A inh	-1	2	1	3	-4	-11	-1	0
Sfp inh	19%	-17%	6%	18%	/	19%	9%	18%
TRPV1 PAM	-6	9	2	21	2	-1	5	-17
Menin MLL FP FL	0.6	3.2	5.3	5.3	/	1.4	1.6	-2.4
ClpP mod	2.1%	1.1%	/	1.3%	-3.0%	2.0%	-0.6%	0.1%
gsp agonist	-19%	?	8%	-21%	/	4%	14%	-2%[15.4 µM]
gsp antagonist	-3%	-6%	4%	10%	4%	11%	2%	-11%

(49) CCOC(=O)c1cnn(CCOC(=O)c2ccccc2)c1NC(=O)c1ccccc1
(50) Cc1cccc(Cc2nc3ccccc3[nH]2)c1
(51) COC(=O)[C@@H](NS(=O)(=O)c1cc(Br)ccc1Br)C(C)C
(52) CCCc1nc2oc3c(NCCCN(C)C)ncnc3c2c2c1CCCC2
assay / entry	49	50	51	52
CtBP-E1A inh	1	0	5	0
Sfp inh	-8%	/	/	-25%
TRPV1 PAM	-17	/	/	-4
Menin MLL FP FL	-2.5	/	/	5.0
ClpP mod	-2.2%	/	0.3%	/
gsp agonist	-29%	-22%	-33%[inhibitor]	1%[15.4 µM]
gsp antagonist	1%	-4%	/	3%
